Assay outcomes (PubChem)
Rce1 inh – inhibitors of yeast Ras-converting enzyme | yeast membranes, quenched prenylated peptide cleavage fluorescence | calls only | hit rate 0.27% among 290,000 | AID 2563;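 active = fall in fluorescence gain of 50% or more versus controls, with final raw signal at or below 3038400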;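 also: plate controls were neutral control wells for no effect and wells lacking membranes for full effect; tested at 10 µM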
MT1-MMP act inh – blocks activation of human MT1-MMP; GFP/RFP ratio change, % at 20 µM; hit rate 0.061% among 360,000; AID 651647; P50281; HT1080 RFP-PRO-GFP cells, GFP/RFP ratio fluorescence, overnight; percent of plate control window, DMSO zero;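 active = GFP/RFP ratio change of at least 30% with cell ATP level not reduced by more than half and red fluorescence within 50% of control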; also: strong numbers were not always called active
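Assay system – RFP-PRO-GFP reporter HT1080 cells · Compound dosing – single dose of 20 µM compound, 1% DMSO final · Incubation – overnight compound exposure at 37 °C · Measure – GFP/RFP fluorescence ratio · Benchmarks – DMSO wells and RFP-L50D-GFP cells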
HIV Env fusion – HIV envelope-mediated fusion inhibition; HeLa-JRFL Env/CEM21 cell fusion, luciferase; inhibition, % at 12.3 µM; hit rate 1.1% among 360,000; AID 651610;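 active = mean replicate inhibition score of at least 50 and every replicate individually at or above 50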;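 also: 0% = plate neutral controls and 100% = maraviroc near 300 nM; one replicate is shown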
PABP polyA inh – blocks human PABP binding to poly(A) RNA; inhibition, % at 35 µM; hit rate 1% among 290,000; AID 2014; fluorescence polarization;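 active = 50% or more with normal probe brightness, or confirmed in later tests; about a fifth of its hits are not listed in these tables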;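 also: calls also rest on retests at 20 µM and on dose response follow-up; controls were probe without protein and protein plus probe with vehicle; some compounds called inactive have numbers as strong as hits; many hits fall short of the cut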
Target sequence (P11940 whole entry, looked up): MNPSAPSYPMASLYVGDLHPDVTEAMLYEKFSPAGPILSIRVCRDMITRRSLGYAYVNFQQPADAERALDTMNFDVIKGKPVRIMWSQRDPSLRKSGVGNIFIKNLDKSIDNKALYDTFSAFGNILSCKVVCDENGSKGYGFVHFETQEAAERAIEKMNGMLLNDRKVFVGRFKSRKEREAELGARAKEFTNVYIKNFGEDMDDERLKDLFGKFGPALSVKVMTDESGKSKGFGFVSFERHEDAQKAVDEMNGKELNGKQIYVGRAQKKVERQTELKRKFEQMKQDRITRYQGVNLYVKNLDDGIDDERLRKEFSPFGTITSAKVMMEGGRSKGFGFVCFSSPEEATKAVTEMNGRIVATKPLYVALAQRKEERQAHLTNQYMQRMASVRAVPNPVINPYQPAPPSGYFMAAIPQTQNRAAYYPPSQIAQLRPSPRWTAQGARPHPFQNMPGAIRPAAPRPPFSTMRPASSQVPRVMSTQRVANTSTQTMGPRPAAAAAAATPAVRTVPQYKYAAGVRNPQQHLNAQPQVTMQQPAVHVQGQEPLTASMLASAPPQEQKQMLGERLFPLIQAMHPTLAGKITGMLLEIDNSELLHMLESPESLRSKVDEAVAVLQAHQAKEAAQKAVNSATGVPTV
eIF4H FP inh – inhibitors of RNA binding by human eIF4H. Q15056. eIF4H fluorescence polarization binding assay. inhibition, % at 35 µM. hit rate 0.94% among 290,000. AID 2012;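 active = 50% or more with normal probe brightness, or confirmed in later tests; about a fifth of its hits are not listed in these tables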;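 also: calls also rest on retests at 20 µM and on dose response follow-up; 0% = protein and probe with vehicle and 100% = probe without protein; strong numbers were not always called active; many hits fall short of the cut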
UUG fidelity – alters start codon recognition fidelity in yeast. S. cerevisiae UUG-firefly luciferase reporter, luminescence/redox ratio. activity score, % at 18.7 µM. hit rate 0.13% among 350,000. AID 602363;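 active = replicate mean at a twofold rise or more, about +100% in these data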;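 also: firefly luciferase made from a UUG start codon reports start codon fidelity; reporter light over untreated wells divided by growth signal over untreated wells; some hits fall short of that in this replicate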
CSC inhib – blocks cancer stem cells; cancer stem cell-like cells viability, luminescence; inhibition, % at 7.5 µM; hit rate 1.1% among 300,000;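 active = mean at 75% or more and at least half the replicates too; tested in HMLE shEcad cells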;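 also: 0% = median of negative and 100% = median of positive control wells; the first replicate is given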
eIF4H FP inh retest – recorded beside eIF4H FP inh, whose call it bears; inhibition, %; compound at 20 µM; confirmation average;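 mean of two retest wells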
PABP polyA inh retest – further read-out of PABP polyA inh, marked with its call; inhibition, %; compound at 20 µM; confirmation repeats;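 mean of two retest wells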
MT1-MMP act inh RFP – recorded beside MT1-MMP act inh, whose call it bears; RFP signal change, %; measured here: RFP expression control read;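 0 = vehicle wells; hits needed this value within 50% of zero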
* = called active by the depositor; i = inactive; nt = no result given; & = joins results of further samples; [ ] = remark or other dose.

SMILES	Rce1 inh	MT1-MMP act inh	MT1-MMP act inh RFP	HIV Env fusion	PABP polyA inh	eIF4H FP inh	UUG fidelity	CSC inhib	others
S=C(c1ccc(Cl)cc1)N1CCN(Cc2ccccc2)CC1	i	2.0	-4.9	0.1	-10.2	-4.2	nt	-2.3
COCCn1cnnc1SCC(=O)Nc1cccc(S(=O)(=O)N(C)c2ccccc2)c1	i	3.6	2.7	3.4	-8.1	-3.9	-7.9	-2.7
CC1=CC(=O)CC(C)(C)C1(O)/C=C/C(C)=C/C(=O)O (centres undefined)	i	-4.3	-0.4	nt	-11.8	-5.5	-15.7	0.2
CCOc1ccc(CNC(=O)CCn2c(=O)oc3ccccc32)cc1OC	i	-0.8	1.0	-19.0	3.6	0.0	-15.6	-17.4
CC(CN1CCN(C)CC1)OC(=O)c1ccccc1 (centres undefined)	i	-0.3	5.0	nt	2.1	-2.6	-10.5	-4.1
Cc1ccc(C)c(S(=O)(=O)N2CCN(C(=O)CSc3ccccc3F)CC2)c1	i	-2.5	-1.0	-19.5	1.2	-6.3	3.4	-6.0
CSc1nc(-c2ccccc2)nc(N2CCOCC2)c1C(C)=O	i	-0.6	-4.1	-13.3	-2.0	38.2	nt	-5.7
O=C(O)c1ccc(-c2noc(-c3cccc(C(F)(F)F)c3)n2)cc1	i	4.5	1.1	-26.7	nt	nt	-16.0	-10.4
Cc1cc2cc(CNC(=O)Nc3ccccc3)ccc2n1C	i	40.7	90.3	nt	4.3	10.7	-9.1	-3.7
C[C@@]12CCC=C[C@H]1[C@H](c1ccc3ccccc3c1Br)N(Cc1ccccc1)C2=O	i	-3.5	-6.7	31.5	-0.5	-11.5	-20.4	nt
CCN(CC)c1ccc(CNc2ccc3c(c2)ncn3CC)cc1	i	nt	nt	16.8	1.0	-3.6	nt	-2.1
CCC(C)NCCOCCOc1ccccc1-c1ccccc1 (centres undefined)	i	1.5	1.7	21.8	7.1	-18.3	nt	-1.0
CC1(C)CC2CC(C)(CN2C(=S)Nc2ccccc2F)C1 (centres undefined)	i	-0.5	1.7	23.7	2.1	11.2	nt	-1.8
Cc1nnc(-c2cnn(C)c2N)n1Cc1ccccc1F	i	-2.3	0.7	-23.7	-12.4	1.0	-17.9	3.5
CCC(Cc1ccccc1)NC(=O)C1CCN(S(=O)(=O)c2ccc3c(c2)CC(C)N3C(C)=O)CC1 (centres undefined)	i	-2.0	-7.7	17.9	3.0	7.3	-14.7	-2.9
Cc1c(NC(=O)c2cc(S(=O)(=O)N3CCCCC3)ccc2Cl)c(=O)n(-c2ccccc2)n1C	nt	1.8	1.1	-8.4	nt	nt	-8.0	-7.5
N#Cc1ccccc1NC(=O)COC(=O)C1CCN(C(=O)c2ccc(Cl)cc2)CC1	nt	-1.4	3.3	-3.2	nt	nt	-12.1	nt
CCn1c(SCc2ccccc2)nc2c(c1=O)SCC2	i	0.8	-1.6	18.6	4.9	-6.7	nt	9.7
Cc1ccccc1C(CC(=O)c1cccs1)C(C#N)C#N (centres undefined)	i	-19.4	-11.1	3.1	-1.3	2.0	-3.3	nt
CC(C)Cn1c(N)c(C(=O)COC(=O)c2cc(-c3ccccc3)nc3ccccc23)c(=O)n(C)c1=O	i	5.2	-17.2	9.7	-3.0	-2.7	-2.9	-9.4
CC(C)[C@H](NC(=O)C1CCC(CNC(=O)[C@@H]2CCCN2C(=O)OC(C)(C)C)CC1)C(=O)O (some centres undefined)	i	1.9	5.0	-30.9	-0.4	-15.3	-17.3	nt
COc1cccc(CN2C(=O)c3ccccc3S2(=O)=O)c1	nt	-3.2	-3.8	-1.2	5.8	0.7	-9.1	-18.9
COC1=C/C(=C/c2c(N)n3cc(C)sc3nc2=O)C=CC1=O	i	-5.3	4.9	-20.3	3.4	60.2*	2.4	1.3	eIF4H FP inh retest=104.1*;PABP polyA inh retest=29.4
COc1cc(SC)ccc1C(=O)NCCc1c[nH]c2ccccc12	i	3.4	-6.1	-15.3	4.6	12.7	-16.0	38.0
CC1CCN(C(=O)c2[nH]cnc2C(=O)NCc2ccccc2)CC1	nt	3.7	1.8	-21.6	nt	nt	-7.0	-15.6
COc1ccc(C2c3c(oc4ccc(Cl)cc4c3=O)C(=O)N2CCN2CCOCC2)cc1 (centres undefined)	i	1.0	2.7	-12.7	0.1	5.8	10.9	3.1
CCCCCCSc1ccc(-c2nc3cnccn3c2NCCCC)cc1	nt	-46.6	-10.1	48.6	nt	nt	6.7	104.8*
O=C(Nc1ccc(NC(=O)c2ccccc2)nc1)c1ccncc1	i	-0.8	-2.5	1.8	9.1	3.9	nt	-2.3
CCOc1ccc(C2C(C(=O)c3ccc(C)o3)=C(O)C(=O)N2Cc2cccnc2)cc1 (centres undefined)	i	-3.1	-6.3	-3.4	-8.8	-13.3	-6.2	0.3
O=C(NC(=S)Nc1ccc(N2CCN(C(=O)c3ccccc3)CC2)cc1)c1cccs1	i	-19.0	-29.3	10.1	3.1	7.1	1.2	nt

The last four compounds of the section above come first, to join the parts:
SMILES	Rce1 inh	MT1-MMP act inh	MT1-MMP act inh RFP	HIV Env fusion	PABP polyA inh	eIF4H FP inh	UUG fidelity	CSC inhib	others
CCCCCCSc1ccc(-c2nc3cnccn3c2NCCCC)cc1	nt	-46.6	-10.1	48.6	nt	nt	6.7	104.8*
O=C(Nc1ccc(NC(=O)c2ccccc2)nc1)c1ccncc1	i	-0.8	-2.5	1.8	9.1	3.9	nt	-2.3
CCOc1ccc(C2C(C(=O)c3ccc(C)o3)=C(O)C(=O)N2Cc2cccnc2)cc1 (centres undefined)	i	-3.1	-6.3	-3.4	-8.8	-13.3	-6.2	0.3
O=C(NC(=S)Nc1ccc(N2CCN(C(=O)c3ccccc3)CC2)cc1)c1cccs1	i	-19.0	-29.3	10.1	3.1	7.1	1.2	nt
Cc1cc(C)cc(OCC(=O)OCC(=O)NC2CC2)c1	nt	4.9	2.6	7.3	nt	nt	-6.4	0.2
CCN1C(=O)C(CC(=O)Nc2ccc(Br)cc2)N(CCCc2ccccc2)C1=S (centres undefined)	i	-2.3	-13.2	nt	-2.0	-6.5	-9.7	-15.4
COC/C=C/C1=CC2=CC(=O)C(C)(OC(=O)c3cnc4ccccc4n3)C(=O)C2=CN1c1ccccc1 (centres undefined)	i	nt	nt	8.2	43.7*	62.8*	nt	10.4	eIF4H FP inh retest=91.7*;PABP polyA inh retest=70.0*
COc1ccc(Nc2cccc3ccccc23)cc1	i	-19.3	7.0	4.7	nt	nt	-2.6	-5.7
O=C(O)CCCn1c(O)c(C=C2N=c3ccccc3=N2)sc1=S	i	0.5	-5.0	-22.1	1.7	1.2	-16.5	10.9
CCN1C(=O)c2cccc3c(S(=O)(=O)Nc4ccccc4OC)ccc1c23	i	12.4	4.8	1.5	4.8	8.5	nt	nt
COCCNC(=O)C(c1ccc(O)cc1)N(Cc1ccco1)C(=O)CCC(=O)Nc1nccs1 (centres undefined)	i	3.8	4.6	nt	-10.3	6.2	-7.7	-12.0
O=C(Nc1cc2c3c(c1)C1CCCC1CN3CC1CCCC21)c1ccc([N+](=O)[O-])cc1 (centres undefined)	i	6.3	-10.7	-1.9	1.9	9.7	-9.1	1.3
CC(C)CNC(=O)c1ccccc1NC(=O)/C=C/c1cccc([N+](=O)[O-])c1	i	0.2	4.6	-7.3	42.9	-14.3	nt	7.4
NC(=O)C1CCN(C(=O)C2c3ccccc3C(=O)N3CCc4ccccc4C23)CC1 (centres undefined)	i	1.3	1.5	-11.7	-0.7	1.4	-9.1	-7.4
O=C(CC1SC(N2CCOCC2)=NC1=O)Nc1cccc(C(F)(F)F)c1 (centres undefined)	nt	-2.9	-1.4	nt	nt	nt	-16.8	-14.3
CC(C)(C)c1nnc(NC(=O)c2ccc(Cl)nc2)s1	i	2.6	-1.6	-3.9	-1.4	-2.4	nt	2.0
COC(CNC(=O)[C@H](Cc1ccccc1)N1Cc2ccccc2C1=O)OC	i	2.8	4.7	-2.0	-2.1	-4.1	-0.2	-8.0
COc1ccc(NC(=O)Nc2cccc3c2O[C@H](CN(C)C(=O)Nc2ccccc2)[C@@H](C)CN([C@H](C)CO)C3=O)cc1	nt	3.0	-2.7	-20.5[16.7 µM]	nt	nt	11.4&8.3	-7.7
O=C(/C=C/c1ccco1)N1CCN(c2ncccn2)CC1	i	-4.0	2.5	nt	-4.0	43.7	-0.2	-8.6
CN(C)c1cc(Cl)c2nonc2c1N	i	6.5	7.4	-7.8	6.6	5.9	-4.4	2.4
COc1cccc(C(=O)NCC(=O)N/N=C/c2cn[nH]c2-c2ccccc2)c1	i	-2.1	0.3	23.1	7.6	0.2	-23.2	-9.5
COc1cc(Cn2c(=O)oc3ccc(C)cc32)ccc1OC(C)C	i	2.8	-1.4	-1.8	-11.8	1.5	-8.3	2.1
CCC1CN(C(=O)N2CCC(C(=O)NCc3ccc(OC)cc3OC)CC2)c2ccccc2O1 (centres undefined)	i	-1.2	-2.5	19.0	-19.9	-10.7	-12.4	-7.2
O=C(OCc1ccccc1F)c1ccc2c(c1)-c1ccccc1C2=O	i	7.0	0.2	nt	-0.2	0.8	-1.0	2.2
O=C(CCn1c(=O)oc2ccc(Cl)cc21)N1CCN(Cc2ccccc2)CC1	i	-3.1	1.5	-6.5	-7.0	-3.1	-12.9	6.0
Nc1ccc(-c2ccc(N)c([N+](=O)[O-])c2)cc1[N+](=O)[O-]	i	12.7	0.8	-55.4	-0.8	-2.1	nt	2.7
Cc1ccn2c(Nc3ccc4c(c3)OCO4)c(-c3ccc(O)cc3)nc2c1	i	-2.6	-2.7	-6.5	1.8	-8.8	nt	23.0
CCOC(=O)C1CCCN(S(=O)(=O)c2cc(Br)cc3c2N(C(=O)CC)CC3)C1 (centres undefined)	nt	1.4	1.2	-3.9	1.5	4.5	-30.8	-10.1
COCCCNC(=O)CCSc1ccc(C)cc1	i	4.4	3.4	6.0	-11.9	-1.0	nt	-1.6
O=C(Nc1ccc2nccnc2c1)c1cnccn1	i	2.8	-0.3	-34.4	-6.8	0.5	1.5	10.7
Cc1ccc(C(NC(=O)C2CCCCC2)c2c(O)ccc3ccccc23)cc1 (centres undefined)	i	-51.0	-34.1	10.9	-10.2	-0.2	nt	54.1
S=c1[nH]nc(COc2ccccc2)n1/N=C/c1cccnc1	i	0.8	0.7	-0.3	-2.7	0.3	-14.3	0.5
COc1ccc(CN2CCNC(=O)C2CC(=O)NCc2cc(C)n(C)n2)c(F)c1 (centres undefined)	i	-3.1	3.3	8.4	17.4	1.5	-1.2	-7.9
COc1ccc(-c2nnc(SCc3c(C)noc3C)o2)cc1	i	-0.9	-2.2	-6.8	-3.8	1.8	nt	-13.4
C#CC1(NC(=O)NC(C)C)CCCCC1	i	-4.3	2.8	0.0	2.4	-0.4	nt	nt
O=C(OCn1nnc2ccccc2c1=O)c1ccc(Br)o1	i	9.5	0.2	nt	12.4	-0.9	-0.8	5.0
CCc1ccc(NC(=S)Nc2cccc(OC)c2)cc1	i	5.4	1.3	nt	-5.4	-1.1	-21.7	5.8
Cc1cccc2cc(CN(Cc3ccco3)C(=O)NC3CCCCC3)c(=O)[nH]c12	i	-19.0	-12.3	-39.4	-2.0	-8.4	-12.1	-12.7
O=C(CN(C1CCCCC1)S(=O)(=O)c1ccc(Cl)cc1)N1CCOCC1	i	1.2	1.0	-25.6	-2.4	1.2	nt	-2.0
Cc1ccc(-c2nc3cc(NC(=O)C(C)C)ccc3o2)cc1C	i	8.7	-7.9	-152.6	19.0	2.5	-30.9	19.9
O=C(c1cc(COc2c(F)cccc2F)on1)N1C[C@H]2CC[C@H]1C2	i	-0.4	-0.1	-63.4	0.9	0.3	-8.0	1.7
